RGS16-Gao: regulators of human RGS16-Galphao interaction; O15492+P09471; bead-based flow cytometry RGS16-Galphao binding, fluorescence; actives lie on both sides; binding response (% of control), % at 10 µM; 220,000 compounds, 0.38% hits; AID 1441;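 active means below 25% or above 175%, edge rows of some plates excepted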;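 further: Galphao activated by GDP with aluminum fluoride before binding; 100% = wells without compound and 0% = beads without RGS; some results beyond the cut were filed as inactive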
Target sequence (O15492 whole entry, looked up): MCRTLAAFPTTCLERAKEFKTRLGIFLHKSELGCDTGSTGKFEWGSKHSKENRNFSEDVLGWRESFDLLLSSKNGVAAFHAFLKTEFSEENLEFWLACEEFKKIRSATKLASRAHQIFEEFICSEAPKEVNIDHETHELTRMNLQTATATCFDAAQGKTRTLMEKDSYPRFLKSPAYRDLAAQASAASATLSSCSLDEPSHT
Target sequence (P09471 whole entry, looked up): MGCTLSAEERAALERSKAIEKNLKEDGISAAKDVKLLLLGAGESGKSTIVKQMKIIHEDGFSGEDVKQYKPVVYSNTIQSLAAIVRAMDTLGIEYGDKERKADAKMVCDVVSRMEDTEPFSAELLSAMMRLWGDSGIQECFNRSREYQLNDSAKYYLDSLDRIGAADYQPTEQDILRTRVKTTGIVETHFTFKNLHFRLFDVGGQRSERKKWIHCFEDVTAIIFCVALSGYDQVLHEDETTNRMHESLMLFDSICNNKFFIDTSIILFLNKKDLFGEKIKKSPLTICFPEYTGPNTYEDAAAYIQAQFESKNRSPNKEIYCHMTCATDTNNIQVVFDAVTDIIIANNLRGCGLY
PKD1 inh: PKD1 (human) kinase inhibition. AID 797. inhibition, %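 (about 10 µM by stock and volumes)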. 200,000 compounds, 0.056% hits. PKD1 kinase fluorescence polarization assay. Q15139;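 active means inhibition of 50% or more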;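 further: controls were vehicle for no effect and a reference inhibitor for full effect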
HSV augment: increases HSV replication in cells; 220,000 compounds, 0.005% hits; maximum fold increase; HSV replication augmentation in cells, fold increase;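 active means peak rise of 1.5-fold or more in the series; inconclusive means self-fluorescent or not available for retest; tested in PC3 cells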;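 further: first round at 10 µM; read as green reporter fluorescence; hits show the peak of a series up to 25 µM; 1 = signal of infected wells without compound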
GALR2 agonist: activates the human galanin receptor 2; AID 803; activation, %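 (tested at 5 µM)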; GALR2-expressing cells, agonist activation read-out; O43603; 140,000 compounds, 0.48% hits;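 active means above mean plus 3 SD of all compounds, about 5% in these data, not always enough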;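 further: 0% = vehicle buffer wells and 100% = reference agonist at full effect; tested in CHO reporter cells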
Target sequence (O43603 whole entry, looked up): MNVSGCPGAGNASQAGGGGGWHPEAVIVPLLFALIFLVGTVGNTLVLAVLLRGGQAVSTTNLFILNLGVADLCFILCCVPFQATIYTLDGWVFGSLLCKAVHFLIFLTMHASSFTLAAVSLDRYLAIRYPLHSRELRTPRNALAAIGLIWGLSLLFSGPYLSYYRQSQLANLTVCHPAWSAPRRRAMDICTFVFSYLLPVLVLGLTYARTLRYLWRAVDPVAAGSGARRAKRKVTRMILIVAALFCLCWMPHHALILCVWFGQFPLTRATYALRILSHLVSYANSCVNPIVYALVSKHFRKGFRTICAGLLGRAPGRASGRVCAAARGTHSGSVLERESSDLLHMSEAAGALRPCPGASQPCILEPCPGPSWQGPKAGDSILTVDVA
Insulin prom inh: TRM-6 insulin promoter activity inhibition; TRM-6 cells (human fetal islet line), insulin promoter-eGFP reporter, imaging; reporter expression induced with tamoxifen; inhibition, % at 2 µM; 130,000 compounds, 0.9% hits;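 active means inhibition above the mean plus 3 SD, with well images judged a real hit on visual review, cut at about 60% in these data, passing the limit was not always enough; inconclusive means inhibition over the cutoff but images rejected on review; inactive means inhibition not above the cutoff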
Insulin prom inh cell count: recorded beside Insulin prom inh, whose call it bears; normalized cell count, %; measured here: cell count, toxicity; reference of the scale not given here;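 cells exposed to compound for 48 h; stained nuclei by imaging scaled within each plate; lower means fewer cells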
HSV augment primary fold: further read-out of HSV augment, marked with its call; fold increase; compound at 10 µM; measured here: primary screen fold increase 10 uM; tested in PC3 cells;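 GFP signal in the first replicate; 1 = infected wells without compound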
Numbers without * were called inactive; i = inactive; ? = inconclusive; · = no result given.

SMILES | RGS16-Gao | PKD1 inh | HSV augment | HSV augment primary fold | GALR2 agonist | Insulin prom inh | Insulin prom inh cell count
CC1=Nc2ccccc2N=C(NC(=O)c2ccccc2)C1c1ccc(Cl)cc1 (stereo not drawn) | 100 | -1 | i | 1 | · | · | ·
COCC(=O)Nc1ccccc1C#N | 101 | 1 | · | · | -1.9 | -26 | 106
CCN(CC)C(=O)CSc1nnc([C@@H](N)Cc2ccccc2)o1 | 100 | · | i | 0.95 | · | · | ·
O=C(Nc1ccc(F)c(F)c1)c1cc(S(=O)(=O)N2CCN(c3ccccn3)CC2)ccc1F | 89 | -8 | i | 0.83 | -0.6 | 59 | 65
COc1ccccc1Sc1nc(-c2ccccn2)ncc1OC | 104 | -12 | i | 0.99 | · | 51 | 155
COc1ccc2cc(-c3[nH]ncc3CNCCn3nc(C)cc3C)ccc2c1 | 93 | 1 | i | 0.96 | · | · | ·
CCCCCCCCCCCC(=O)c1c(O)cccc1O | 98 | 1 | i | 1 | · | · | ·
CC(=O)c1ccccc1NS(=O)(=O)c1c(C)nn(-c2ccccc2)c1C | 104 | -3 | i | 0.97 | -2.8 | -7 | 89
CCOCCCNC(=S)NCCNc1nc2c(C)cccc2cc1C#N | 102 | 4 | i | 0.86 | 0.4 | 19 | 112
Nc1nc(N2CCN(C(=O)c3ccco3)CC2)nc2ccc(Br)cc12 | 162 | -7 | i | 0.78 | · | 20 | 59
O=C(COC(=O)c1cccc(Cl)c1)Nc1cc(Cl)ccc1Oc1ccccc1 | 100 | 1 | i | 0.97 | 0.1 | 13 | 110
Clc1cccc(-c2ccc(C=Nc3ccc(N4CCOCC4)cc3)o2)c1 | 89 | -2 | i | 0.82 | -1.0 | · | ·
CCOc1cc(C=C(C#N)C#N)ccc1Oc1ccc([N+](=O)[O-])cn1 | 91 | -3 | i | 1.3 | · | · | ·
CCc1ccc(/C=C2/SC(=S)N(CC(=O)Nc3nc4ccccc4s3)C2=O)cc1 | 129 | -14 | i | 1.2 | -0.5 | 63 | 95
CC(C)OC(=O)CCC1(C(=O)O)CCC(=O)NC1 (stereo not drawn) | 95 | -3 | i | 0.88 | -2.0 | · | ·
Cc1cn(S(=O)(=O)c2ccccc2[N+](=O)[O-])cn1 | 100 | -6 | i | 0.96 | · | 0 | 114
Cc1cccc(N(C)S(=O)(=O)c2ccc3c(c2)CCC(=O)N3)c1 | 107 | -13 | i | 1.2 | -1.3 | · | ·
Cc1cc(C)c2c(C)c(C(=O)NCc3ccncc3)oc2c1 | 100 | 7 | i | 0.82 | -0.9 | 50 | 115
COc1ccc(-n2ncc3c(N4CCC(C(N)=O)CC4)ncnc32)cc1 | 115 | -1 | i | 0.8 | -1.8 | · | ·
O=[N+]([O-])c1ccc(N2CCN(S(=O)(=O)c3ccc(Cl)cc3)CC2)cc1NCc1cccnc1 | 94 | -6 | ? | · | -6.0 | 33 | 101
O=C(CNCC1CCCO1)Nc1ccc(N2CCCCCC2)cc1 (stereo not drawn) | 101 | 2 | i | 0.78 | -0.9 | 22 | 134
COc1cc(/C=C2\CC/C(=C\c3ccc(OCCO)c(OC)c3)C2=O)ccc1OCCO | 104 | -6 | i | 0.82 | · | · | ·
CC(C)NC(=O)c1ccc(-c2cccc(C(F)(F)F)c2)o1 | 103 | -6 | i | 0.87 | -2.7 | -19 | 130
CC(O)CNc1nc(Cl)c(C#N)s1 (stereo not drawn) | 111 | -9 | i | 0.84 | · | · | ·
COC(=O)c1cc2c(C)nn(C)c2s1 | 99 | · | i | 0.88 | · | · | ·
CC(=O)Nc1ccc(NC(=O)c2ccc(NS(=O)(=O)c3cc(C(C)(C)C)cc(C)c3C)cc2)cc1 | 109 | 3 | i | 0.94 | -0.6 | -17 | 120
Cc1ccc(S(=O)(=O)N2CCC(C(=O)NNC(=O)c3ccccc3)CC2)cc1 | 101 | 0 | i | 0.97 | · | · | ·
CCCc1nccn1S(=O)(=O)c1cc(OC)ccc1OC | 102 | -3 | i | 0.92 | -4.2 | 75* | 35*
C/C(=N\Oc1cccc(F)n1)c1ccc(Cl)cc1Cl | 104 | -2 | i | 0.87 | -0.3 | 14 | 105
O=C(CCS(=O)(=O)Cc1ccccc1F)NCCCN1CCCCC1 | 94 | -5 | i | 0.96 | -2.6 | -10 | 144
CN(C)c1nnnn1-c1ccc(OC(F)(F)F)cc1 | 106 | -8 | · | · | · | 23 | 82
O=S1(=O)CC2N=C(N(Cc3ccc(F)cc3Cl)c3ccccc3F)SC2C1 (stereo not drawn) | 103 | 2 | i | 0.86 | -0.1 | · | ·
CCOc1ccc(OCC(=O)N2CCOCC2)cc1 | 98 | 4 | i | 0.93 | -2.6 | 41 | 82
CCCCC(c1nnnn1Cc1ccco1)N1CCN(C(=O)c2ccco2)CC1 (stereo not drawn) | 98 | -2 | · | · | -2.8 | 0 | 91
COc1ccc(Cc2nnc(NC(=O)c3c(-c4ccccc4)noc3C)s2)cc1 | 101 | 11 | i | 0.92 | -0.2 | 25 | 49
Cc1ccc(/C=N/NC(=O)NC2CCCCC2)o1 | 96 | -4 | i | 1.2 | · | -13 | 50
Cc1ccnc(SCCn2c(N3CC(C)CC(C)C3)nc3c2c(=O)n(C)c(=O)n3C)n1 (stereo not drawn) | 100 | -4 | i | 1.1 | -2.0 | · | ·
COc1ccc(NC(=O)CSc2nnc(C3CC3)n2C)cc1 | 105 | 1 | i | 0.92 | · | · | ·
CCC(CC)c1nc(NCCC(=O)O)c2ccccc2n1 | 116 | 5 | i | 1 | -1.4 | · | ·
Cc1ccc(NCc2nnc(SCC(=O)c3ccccc3)o2)c(C)c1 | 90 | 3 | i | 0.93 | -0.9 | -3 | 68

One compound at a time, from the list above.
CCCCCCCCCCCC(=O)c1c(O)cccc1O as listed: RGS16-Gao: 98; PKD1 inh: 1; HSV augment: i; HSV augment primary fold: 1; GALR2 agonist: ·; Insulin prom inh: ·; Insulin prom inh cell count: ·
Cc1ccnc(SCCn2c(N3CC(C)CC(C)C3)nc3c2c(=O)n(C)c(=O)n3C)n1 (stereo not drawn) as listed: RGS16-Gao: 100; PKD1 inh: -4; HSV augment: i; HSV augment primary fold: 1.1; GALR2 agonist: -2.0; Insulin prom inh: ·; Insulin prom inh cell count: ·
CC(C)NC(=O)c1ccc(-c2cccc(C(F)(F)F)c2)o1 as listed: RGS16-Gao: 103; PKD1 inh: -6; HSV augment: i; HSV augment primary fold: 0.87; GALR2 agonist: -2.7; Insulin prom inh: -19; Insulin prom inh cell count: 130

Next part
SMILES | RGS16-Gao | PKD1 inh | HSV augment | HSV augment primary fold | GALR2 agonist | Insulin prom inh | Insulin prom inh cell count
COc1ccc(CCN2C(=NC(=O)CCC(=O)O)SC3CS(=O)(=O)CC32)cc1OC (stereo not drawn) | 107 | -1 | i | 1 | -0.2 | · | ·
CCOC(=O)c1[nH]c(COC(=O)CCOc2ccccc2OC)c(C(=O)OCC)c1C | 91 | -1 | i | 0.75 | -1.2 | 67 | 94
CCOC(=O)C1CCCN(CC(=O)c2c[nH]c3ccc(C)cc23)C1 (stereo not drawn) | 106 | · | i | 0.9 | · | · | ·
COC(=O)c1[nH]c(C)c(/C(O)=C2\C(=O)C(=O)N(CCN3CCOCC3)C2c2ccc(C)o2)c1C (stereo not drawn) | 95 | · | i | 1 | · | · | ·
CCOC(=O)C1=C(C)NC(=O)NC1c1ccc(N2CCC(c3ccccc3)=N2)cc1 (stereo not drawn) | 99 | 1 | ? | · | · | · | ·
CC1(C)Cc2ccccc2-c2c1c(=O)n(Cc1ccccc1)c1nnnn21 | 103 | -9 | i | 0.92 | 2.0 | -13 | 99
COc1ccccc1N1CCN(c2cc(=O)n(-c3ccccc3Cl)c(=O)[nH]2)CC1 | 104 | -15 | i | 0.92 | -2.7 | -90 | 110
CS(=O)(=O)N(Cc1ccc(C(=O)NN=C2CCCCCC2)cc1)c1ccccc1 | 103 | 5 | · | · | -2.5 | -15 | 130
Cn1cnc(S(=O)(=O)Nc2cc(-c3ccc(Cl)cc3)nn2C)c1 | 104 | · | i | 1.1 | · | · | ·
CCC(=O)N1CCc2cc(S(=O)(=O)CCC(=O)O)ccc21 | 99 | 0 | i | 1.2 | 0.7 | · | ·
CC(C)(C)C(=O)CSc1nccc(=O)[nH]1 | 18 | -10 | i | 0.92 | -3.1 | · | ·
CCOc1ccc(S(=O)(=O)Nc2ccc(C(=O)N/N=C/c3c(C)nn(-c4ccccc4)c3N3CCCC3)cc2)cc1 | 204 | 1 | i | 0.89 | 0.2 | -69 | 105
NNc1nnc2c3cc(F)ccc3n(Cc3ccccc3)c2n1 | 96 | · | i | 0.9 | · | · | ·
COC(=O)c1ccc(NC(=O)C(=O)N2CCN(C(=S)Nc3ccc(C)cc3)CC2)cc1 | 109 | 1 | i | 0.9 | 0.3 | -19 | 78
Cc1ccc2c(c1)C(=O)CCCCC(=O)N2 | 104 | · | i | 1.1 | · | · | ·
Cc1cc2c(OCC(O)CN3CCCC3)cccc2[nH]1 (stereo not drawn) | 101 | -4 | i | 0.89 | · | -109 | 96
CC1=CC(C)(C)N(S(=O)(=O)c2ccc(C)cc2)c2cc(C)ccc21 | 98 | -1 | i | 0.68 | -0.6 | -28 | 34
O=C(CCc1ccccc1)n1nc(-c2ccccc2)nc1NCc1ccco1 | 130 | -10 | i | 0.82 | -0.9 | -33 | 119
Cc1cccc(C2c3[nH]c4ccccc4c3CCN2C(=O)c2cc(C(C)C)nc(N)n2)n1 (stereo not drawn) | 102 | -9 | i | 0.86 | · | 0 | 148
CC1CCCCN1CCNC(=O)C1CCN(S(=O)(=O)N2CCCCC2)CC1 (stereo not drawn) | 102 | -1 | i | 1.1 | -3.1 | 0 | 184
CCOC(=O)c1c(C)[nH]c(C)c1-c1ccccc1OC | 95 | -4 | i | 0.92 | -1.7 | 15 | 96
COc1ccc(/C=N/NC(=O)CCc2c(C)n[nH]c2C)cc1O | 100 | -10 | i | 0.94 | -1.3 | -8 | 91
Cn1cccc1Cc1nnc(SCC(=O)N2CCN(c3ccccc3)CC2)n1-c1ccc(F)cc1 | 105 | -1 | i | 0.81 | -1.5 | · | ·
CC1(C)CC(N(Cc2ccccc2)C(=O)Cc2ccccc2)CCO1 (stereo not drawn) | 101 | 10 | i | 1.1 | · | · | ·
Clc1ccc(OCCn2cnc(Cl)c2Cl)cc1 | 94 | · | i | 0.96 | · | · | ·
COC(C[C@H]1O[C@H]1[C@@H](O)[C@H](C)OCc1ccccc1)OC | 103 | · | i | 1.1 | · | · | ·
COc1ccccc1C(CC(=O)Nc1nccs1)c1ccco1 (stereo not drawn) | 100 | 12 | i | 1.1 | -0.6 | -86 | 108
COc1ccc(CCNC(=O)CSc2nnc(-c3cccc(F)c3)o2)cc1OC | 102 | 2 | i | 0.82 | -0.2 | · | ·
COc1ccccc1NC(=O)Cn1cc(C(=O)c2ccco2)c2ccccc21 | 97 | 5 | i | 1 | · | · | ·
Cc1nnc(SCC(=O)NCCN2C(=O)CSC2=O)s1 | 98 | -2 | i | 0.88 | -1.3 | 29 | 178
COc1ccc(CNC(=O)C2CCNCC2)cc1 | 65 | 1 | i | 1 | -1.3 | -61 | 154
c1ccc(Cn2nnc3c(N4CCc5ccccc5C4)ncnc32)cc1 | 101 | -6 | i | 0.93 | -1.9 | 82* | 77*
O=C(NC1CCCCC1)N1CCCC(c2nc3ccccc3[nH]2)C1 (stereo not drawn) | 91 | 1 | i | 0.99 | -1.3 | 26 | 40
CC(=O)Nc1nc2c(c3c1c(=O)oc1ccccc13)CCCCC2 | 96 | -1 | · | · | 0.0 | -32 | 127
COc1cc2[nH]ccc(=O)c2cc1OC | 101 | 0 | i | 1.2 | -1.0 | 0 | 121
COc1cccc(CN2CCN(Cc3ccc(O)cc3)CC2CCO)c1 (stereo not drawn) | 102 | -3 | i | 1 | · | -41 | 41
COc1ccccc1C(=O)n1nc(-c2ccco2)nc1N | 82 | 0 | · | · | -1.5 | 29 | 56
O=C(NCCc1ccccc1)c1ccc(-c2ccccc2Cl)o1 | 104 | -1 | i | 1 | -1.9 | -10 | 66
Cc1ccc(Cn2ncc3c(N4CCCC4)ncnc32)cc1 | 104 | -9 | i | 0.92 | -0.6 | 62 | 116
C/C(N)=C(/C#N)C(=O)CSc1n[nH]c(-c2cccs2)n1 | 99 | 0 | i | 0.91 | · | · | ·
O=C1c2cccnc2C(=O)N1Cc1ccc(Cl)cc1 | 106 | -1 | i | 0.88 | -1.4 | 6 | 89

Reprinted at random: two entries already listed, in no set order.
SMILES | RGS16-Gao | PKD1 inh | HSV augment | HSV augment primary fold | GALR2 agonist | Insulin prom inh | Insulin prom inh cell count
Clc1ccc(OCCn2cnc(Cl)c2Cl)cc1 | 94 | · | i | 0.96 | · | · | ·
COC(C[C@H]1O[C@H]1[C@@H](O)[C@H](C)OCc1ccccc1)OC | 103 | · | i | 1.1 | · | · | ·
